SmPrx2 inh – blocks S. mansoni peroxiredoxin 2 enzymatic activity | Potency, µM | 0.07% of 65,000 active | S. mansoni Prx2 activity coupled to TGR/GSH (TGR is thioredoxin glutathione reductase), NADPH fluorescence loss, qHTS; some inactives read as strong as hits | AID 448; active means full or partial inhibition curve with a strong effect at the top dose; inconclusive means weaker partial or single-point curve; inactive means no accepted curve; also: series up to 57 µM; many of its hits are not listed in these tables
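Purified S. mansoni TGR and Prx2 in pH 7.4 phosphate buffer with EDTA and Tween-20 were preincubated with compounds for 15 min. Further NADPH/GSH was added, then a 2.5 mM H2O2 aliquot initiated turnover, followed kinetically by NADPH fluorescence.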
LT uptake inh – inhibitors of anthrax lethal toxin internalization | 0.67% of 70,000 active | Cells, anthrax lethal toxin internalization, FRET ratio (460/530) | Potency, µM (doses to about 40 µM), inactives show top-dose activity change, negative = inhibition, actives largely listed as inhibitors; active = well fitted falling ratio curve with the 530 nm signal flat; inconclusive = other ratio curves, or a change in one channel alone; inactive = flat curves in the ratio and both channels; the % refers to the ratio; also: % is scaled to controls: 0 for no effect and ±100 for the full control effect; nearly all actives have a fitted effect of over 50% in size; tested in ME-180 cells; beta-lactamase reporter
An asterisk follows results filed as active; ? = inconclusive; . = no result given; & = joins results of further samples; [ ] = remark or other dose. Potency is read from the fitted curve at half-maximal effect.

mol | SmPrx2 inh | LT uptake inh
CCO/C([O-])=N/c1c[n+](N2CCOCC2)no1 | >57&>57 | -9%[3.58 µM]
COCC(=O)N1CCC[C@@]2(CCN(c3ccccc3)C2)C1 | >57 | ?
Cc1nn(-c2ccccc2)c(Cl)c1C(=O)N1CCN(c2ncnc3c2cnn3-c2ccccc2)CC1 | >57 | 6.3µM*
Cc1cnc(C(=O)N2CCN(S(=O)(=O)c3ccc4ccccc4c3)CC2)cn1 | >57 | 15%
O=C1CN(C(=O)COC(=O)COc2ccc3c(c2)CCC3)c2ccccc2N1 | >57 | 2%
COc1ccccc1NC1=NCC(=O)N1Cc1ccccc1 | >57 | -3%
Cc1cc(NC(=O)c2cc3ncc(Br)cn3n2)no1 | >57 | 0%
COc1ccc(-c2cc(C(F)(F)F)n3ncc(C(=O)NCC4CCCO4)c3n2)cc1 (configuration not stated) | >57 | 2%
COc1cccc([C@@H]2Oc3ccc(OC)cc3/C(=N/OC[C@@H](O)COCc3ccco3)[C@@H]2O)c1 | . | 2%[8 µM]
CCCC(c1nnnn1Cc1cccs1)N1CCN(c2ccc(OC)cc2)CC1 (configuration not stated) | >57 | 4%

Complete entries, looked up by structure. Values in the order: SmPrx2 inh, LT uptake inh
Profile of `Cc1nn(-c2ccccc2)c(Cl)c1C(=O)N1CCN(c2ncnc3c2cnn3-c2ccccc2)CC1` : >57, 6.3µM*
Profile of `COc1ccc(-c2cc(C(F)(F)F)n3ncc(C(=O)NCC4CCCO4)c3n2)cc1` (configuration not stated) : >57, 2%
Profile of `CCCC(c1nnnn1Cc1cccs1)N1CCN(c2ccc(OC)cc2)CC1` (configuration not stated) : >57, 4%
Profile of `Cc1cnc(C(=O)N2CCN(S(=O)(=O)c3ccc4ccccc4c3)CC2)cn1` : >57, 15%

(cont.)
mol | SmPrx2 inh | LT uptake inh
COc1cc2cc(CN(Cc3nnnn3Cc3ccccc3)CC3CCCO3)c(=O)[nH]c2cc1OC (configuration not stated) | >57 | -18%
CCN1C(=O)[C@H]2[C@H]3[C@H](O)[C@H](O)C/C(=N/O[C@@H](C)c4cn([C@H](CO)Cc5ccccc5)nn4)[C@@H]3CC[C@@H]2C1=O | . | 4%&-1%[8 µM]
CC(C)CC(N(C)C)C1(c2ccc(Cl)cc2)CCC1 (configuration not stated) | . | ?
COc1cc(Br)cc(/C=N/c2ncn[nH]2)c1O | . | ?
Nc1nc2n(c1C(=O)c1ccccc1)CCC2 | >57 | 4%
Cc1cnc(CNc2nc(-c3cccc(NS(C)(=O)=O)c3)nc3ccccc23)cn1 | >57 | 8%
CCCCn1c(=O)c(C(=O)Nc2cnccn2)c(O)c2ccccc21 | >57 | -11%
CN(C)CCN(Cc1ccccc1)c1ccnc(N(C)C)c1C#N | >57 | 8%
O=S1(=O)NC(=NC2CCCCCC2)c2ccccc21 | >57 | 9%
COC(=O)N1CCC2(CC1)CN(C(=O)Nc1ccccc1)C2 | >57 | 8%

Further records.
mol | SmPrx2 inh | LT uptake inh
CCOc1cc(S(=O)(=O)NC2CCCC2)ccc1Cl | >57 | 7%
COc1cc(NC(=O)CSc2nnc3n2C(C)(C)Cc2ccccc2-3)cc(OC)c1 | >57 | 1%
O=C(OCN1C(=O)c2ccccc2C1=O)C1CCCCC1 | . | -14%
O=C(c1ccco1)N(Cc1cccs1)C1CCS(=O)(=O)C1 (configuration not stated) | ? | 4%
COc1ccc(NC(=O)CCCC2=NS(=O)(=O)c3ccccc3N2)cc1 | >57 | 5%
COc1ccc(NC(=O)Nc2ccc3nccnc3c2)cc1 | . | -21%
COCCCn1c(N)c(C(=O)OC(C)COC)c2nc3ccccc3nc21 (configuration not stated) | >57 | ?
CC1Cc2nc(SCC(=O)NCc3ccco3)n(Cc3ccccc3)c(=O)c2S1 (configuration not stated) | >57 | -10%
O=C(CN1CCOCC1)OCCCC1CCCCC1 | >57 | ?
CCOC(=O)C1C(c2ccc3c(c2)OCO3)NC(=O)NC1(O)C(F)(F)F (configuration not stated) | >57 | 8%

More results
mol | SmPrx2 inh | LT uptake inh
Cn1c(SCC(=O)Nc2nccs2)nnc1-c1ccncc1 | >57 | -2%
CC(C)Sc1nc(NCc2ccco2)c2c3c(sc2n1)COC(C)(C)C3 | >57 | ?
O=C(CSc1nc2ccccc2s1)N1CCOCC1 | >57 | -5%
CC(=O)NCCNc1ncncc1-c1ccccc1C | >57 | -11%
CCOc1ccc(-n2c(C)nc3c(cnn3-c3ccc(Cl)cc3)c2=O)cc1 | >57 | 2%
COCCNC(=O)c1c[nH]c2ccc(S(=O)(=O)N3CCC4(CC3)OCCO4)cc2c1=O | >57 | -3%
Cc1ccc(S(=O)(=O)N(C)CCCC(=O)N2CCN(c3ccccn3)CC2)cc1 | >57 | ?
O=S(O)O.O=S(O)O.[Co].[NH2-].[NH2-].[NH2-].[NH2-] | >57 | -1%[8 µM]
CCOC(=O)c1nc(N)c(=O)n(-c2ccccc2)n1 | >57 | -9%
O=C(NC1CCCC1)C(c1ccco1)N(Cc1ccccc1)C(=O)c1csnn1 (configuration not stated) | >57 | -12%

Next records
mol | SmPrx2 inh | LT uptake inh
Oc1ccc(CN2CCCc3ccccc32)c2cccnc12 | . | -14%
CS(=O)(=O)N1CCCC(C(=O)NCCCN2CCC(Cc3ccccc3)CC2)C1 (configuration not stated) | >57 | -1%
CCOc1ccc(Nc2c3c(nc4ncnn24)CC(C)CC3)cc1 (configuration not stated) | >57 | -4%
COCCCn1c(SCC(N)=O)nnc1-c1ccccc1 | >57 | 0%
O=C1c2oc3ccccc3c(=O)c2C(c2cccc(O)c2)N1c1ccccn1 (configuration not stated) | >57 | -16%
CCOC(=O)N1CCN(C(=O)Nc2ccc(Cl)cc2)CC1 | >57 | -6%
O=C(Oc1ccccc1)c1cccc(COC(=O)c2cnccn2)c1 | >57 | .
CCOc1ncccc1C(=O)OCc1cn2cc(Cl)ccc2n1 | >57 | -6%
Cc1cccc2cc(CN(Cc3ccccc3)C(=O)N(C)C)c(=O)[nH]c12 | >57 | 10%
CCOc1cc(-c2c(C#N)c(N)nc3c2CCCC3C)ccc1O (configuration not stated) | >57 | 1%

(more compounds)
mol | SmPrx2 inh | LT uptake inh
CN(C)c1cc(-c2cccc(NS(C)(=O)=O)c2)ncn1 | >57 | 16%
C=CCCl | . | 4%
Cc1nc2cccc(C(=O)NC3CCCCC3)c2o1 | >57 | -7%
CCn1cc(C(=O)NCc2cccs2)c(=O)c2ccc(C)nc21 | >57 | -2%
COc1cc(-c2nn3c(-c4cccc(C)c4)nnc3s2)cc(OC)c1OC | >57 | -7%
COc1ccc(C2=Nn3c(nnc3-c3ccccc3OC)SC2)cc1OC | >57 | ?
COc1ccc(-c2cn3cccnc3n2)cc1NC(=O)CC(C)C | >57 | -6%
N#CCCn1c(-c2nonc2NC(=O)c2ccccc2Cl)nc2ccccc21 | >57 | -3%
Cc1ccc(C)c(Cn2nnc3c(=O)[nH]c(C(=O)NCc4ccco4)nc32)c1 | >57 | -6%
CN1C(=O)c2oc3ccc(Br)cc3c(=O)c2C1c1ccncc1 (configuration not stated) | >57 | -1%

Additional entries:
mol | SmPrx2 inh | LT uptake inh
COc1cc2c(cc1OC)C(COc1ccc3c(C)cc(=O)oc3c1)N(C(=O)c1ccco1)CC2 (configuration not stated) | >57 | 9%
COc1cccc(-c2noc(-c3cccs3)n2)c1 | >57 | ?
CS(=O)(=O)Nc1ccc2c(c1)C(=O)OC2 | >57 | -1%
Cc1ccc(NC(=O)CC(O)(C(F)(F)F)C(F)(F)F)c(Br)c1 | >57 | ?
O=C(CC1C(=O)NCCN1C(=O)Nc1ccccc1)Nc1cccc(C(F)(F)F)c1 (configuration not stated) | >57 | -15%
COC(=O)CSC1=C(C#N)C(c2ccc(C)cc2)C2=C(CCCC2=O)N1 (configuration not stated) | >57 | 6%
COC(=O)[C@@]1(Cc2ccc(OC)cc2)[C@H]2c3cc(C(=O)N(C)C)n(Cc4ccc(C)o4)c3C[C@H]2CN1C(=O)c1ccccc1 | >57 | ?
Cc1c(C(=O)c2cccc3ccccc23)c2cccc3c2n1[C@H](CN1CCOCC1)CO3 | >57 | ?
COc1cc(C)c(C)cc1S(=O)(=O)N1CCCCC1c1cccnc1 (configuration not stated) | >57 | -2%
O=C(Nc1cccc(O)c1)c1ccccc1 | >57 | 8%

The results go on.
mol | SmPrx2 inh | LT uptake inh
O=C(CN(C(=O)C1COc2ccccc2O1)c1ccccc1)NCC1CCCO1 (configuration not stated) | >57 | 1%
COc1cccc(Nc2ncc3nc(CCc4ccccc4)c(=O)n(Cc4cccs4)c3n2)c1 | >57 | ?
O=C(COC(=O)c1cccc(S(=O)(=O)N2CCOCC2)c1)Nc1ccc2c(c1)OCO2 | >57 | -11%
O=S(=O)(O)[C@@H](CO)c1ccccc1 (tested in a mixture with another compound) | >57 | -17%[8 µM]
CC(C)=CCCC(C)CN1CCC(O)CC1 (configuration not stated) | >57 | 4%
CNC(=O)N(C1=NCC(C)S1)c1ccc(F)cc1F (configuration not stated) | >57 | 9%
Cc1ccc(C2CC(C(F)F)n3ncc(C(=O)Nc4cnn(Cc5ccccc5C)c4)c3N2)cc1 (configuration not stated) | >57 | ?
COc1ccc(NC(=O)CC(Cc2ccccc2)C(=O)O)cc1 (configuration not stated) | >57 | 3%
N[C@@H](Cc1c[nH]c2ccccc12)c1nnc(SCc2ccccc2)o1 | >57 | -22%
COc1ccc(N(CC(=O)Nc2ccc(S(=O)(=O)N3CCCC3)cc2)S(C)(=O)=O)cc1OC | >57 | 1%

Next part:
mol | SmPrx2 inh | LT uptake inh
O=c1c2c3n(c(=O)nc2[nH]n1-c1ccccc1)CCCCC3 | >57 | -6%
Cc1cc(C)nc(SCC(=O)Nc2ccc(S(=O)(=O)Nc3nccs3)cc2)n1 | . | -3%
CC(CC(=O)NC1CCSC1=O)c1ccccc1 (configuration not stated) | . | -2%
Cc1cc(OCc2ccc(F)cc2)nc(-c2ccccc2O)n1 | . | ?
COc1cccc(N(C(=O)c2ccco2)C(C(=O)NC2CCCC2)c2ccc(N(C)C)cc2)c1 (configuration not stated) | >57 | -8%
COc1cccc(NC(=O)CSc2ccc3nnc(-c4ccncc4)n3n2)c1 | >57 | 4%
COc1cccc(-c2nnc(NC(=O)c3ccc(S(=O)(=O)N(CC(C)C)CC(C)C)cc3)o2)c1 | >57 | ?
Nc1sc2c(c1C(=O)NC1CCS(=O)(=O)C1)CCC2 (configuration not stated) | >57 | -10%
CCn1c(N)c(C(=O)NCc2cccnc2)sc1=S | >57 | 10%
COc1ccc(C(O)c2nccn2Cc2ccccc2)cc1 (configuration not stated) | ? | 1%

Reformatted with each value named: 4 of the compounds above.
CCn1c(N)c(C(=O)NCc2cccnc2)sc1=S
  SmPrx2 inh: >57	LT uptake inh: 10%

O=c1c2c3n(c(=O)nc2[nH]n1-c1ccccc1)CCCCC3
  SmPrx2 inh: >57	LT uptake inh: -6%

Cc1cccc2cc(CN(Cc3ccccc3)C(=O)N(C)C)c(=O)[nH]c12
  SmPrx2 inh: >57	LT uptake inh: 10%

CCn1cc(C(=O)NCc2cccs2)c(=O)c2ccc(C)nc21
  SmPrx2 inh: >57	LT uptake inh: -2%

New compounds follow.
mol | SmPrx2 inh | LT uptake inh
COc1cc(NC(=O)c2cccc3c2C(=O)N(Cc2cccnc2)C3)cc(OC)c1OC | >57 | 7%
CCOC(=O)c1ccc(NC(=O)c2ccc3c(c2)OCO3)cc1 | >57 | -17%
CCCC(=O)n1nc(-c2ccco2)nc1SCc1ccccc1 | >57 | -3%
CC(C)CC12CN3CCN(CC(C3)C1O)C2 (configuration not stated) | . | 9%
CCOC(=O)C1CCCN(C(=O)CCc2ccccc2)C1 (configuration not stated) | >57 | -2%
O=C(CSc1nnc(-c2ccco2)n1-c1ccccc1)NCc1ccc2c(c1)OCO2 | >57 | 2%
O=C1CNCc2[nH]c3ccccc3c2N1c1ccccc1 | . | -3%
O=C(O)CSCc1c(F)cccc1Cl | >57 | -3%
COc1ccc(CCN2CCCn3c2nc2c3c(=O)n(Cc3ccccc3F)c(=O)n2C)cc1OC | >57 | .
O=C(c1ccc2c(c1)c(=O)oc1ccccc12)N1CCCCC1 | >57 | ?

Further compounds follow.
mol | SmPrx2 inh | LT uptake inh
COc1ccc2[nH]cc(C3N4CC5(C)CN3CC(C)(C4)C5=O)c2c1 (configuration not stated) | >57 | -18%
COC(=O)c1c(NC(=O)CN2CCOCC2)sc2c1CCC(C)C2 (configuration not stated) | >57 | 0%
CC[C@@H](c1ccccc1)n1c(=O)n2n(c1=O)[C@H]1[C@H](O)[C@H]3O[C@@H]3/C(=N/OC/C=C(\C)CCC=C(C)C)[C@@H]1CC2 | . | ?
CCN1CCN(c2cc(C)c3cc(NC(=O)c4ccc(Br)o4)ccc3n2)CC1 | >57 | ?
O=C(NCCOc1ccccc1)c1ncn[nH]1 | >57 | 8%
COc1cccc(-n2nnnc2SCC(=O)Nc2cccc(NC(C)=O)c2)c1 | >57 | ?
Cc1ccnc(NC(=O)CCC(=O)N(CC(=O)NC2CCCCC2)c2ccc3c(c2)OCO3)c1 | >57 | -3%
O=C1c2ccccc2C(=O)N1CCc1ccccn1 | >57 | 10%
CCOC(=O)c1cc(C#N)c(SCC(=O)c2cc(C#N)c(SC)nc2C)[nH]c1=O | >57 | ?
COc1ccccc1C1C=C(c2ccccc2)Nc2nnnn21 (configuration not stated) | >57 | ?
CCOC(=O)N1CCC(NC(=O)C2CCCN(S(C)(=O)=O)C2)CC1 (configuration not stated) | >57 | ?

This is a subset. The share of hits here may be higher or lower than overall.
